BJeLR viability – MLPCN primary cell-based screen for lethality selective to Ras in HRASV12 cells. inhibition, % (no concentration beside the values). 0.17% of 300,000 active. BJeLR (HRASV12) viability, CellTiter-Glo ATP luminescence, 48 h; reference of the scale not given here. AID 1554, 2009;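 active = replicate mean above 50%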;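 also: 50 nL library stock added to about 25 µL; numbers are from one replicate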
RN4220 kill – growth inhibition of S. aureus RN4220, primary screen, OD600; inhibition, % (concentration not given with the values); 0.33% of 330,000 active; AID 1259311, 2017; 16 h;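 active = z-score of -3 or lower and OD600 up to 0.18 on both plates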;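 also: plate controls were untreated cells for no effect and reference antibiotic for full effect; stock transfer was 100 nL into about 80 µL; one replicate is shown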
ugtP null kill – growth inhibition of ugtP-null S. aureus, primary screen, RN4220 ugtP deletion, OD600; growth inhibition, % (concentration not given with the values); 16 h; some inactives read as strong as hits; AID 1259309, 2017; 0.54% of 330,000 active;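 active = z-score under -3 and OD600 up to 0.15 on both plates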;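 also: plate controls were untreated wells for no effect and antibiotic for full effect; wells of about 80 µL received 100 nL stock; the first replicate is given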
Mtb hypoxia inh – PubChem AID 1159583; M. tuberculosis hypoxia-regulated fluorescent reporter, fluorescence; fluorescence inhibition, % (test concentration not listed); 0.1% of 300,000 active;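 active = 35 to 45% if threefold the growth effect, above 45% if 1.5-fold the growth effect; inactive = the rest, general growth blockers included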;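 also: wells of about 50 µL received 100 nL stock; 0% = vehicle wells and 100% = reference inhibitor wells; whole bacteria with a GFP reporter of the hypoxia response; strong numbers were not always called active; many hits fall short of the cut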
PrP UTR inh – inhibition of PrP 5' UTR reporter expression | cell-based PrP 5' UTR mRNA reporter, plate reader | inhibition, % (no concentration beside the values) | AID 488862, 2010 | 0.35% of 340,000 active;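 active = every replicate at 50% or more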;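 also: 0 = median of the neutral control wells; tested in H4 reporter cells; numbers are from one replicate; inactives centre near -14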
Bead autofluor – flagged as autofluorescent in microsphere protease counterscreen; compound autofluorescence counterscreen, microsphere flow cytometry; active compounds read high; fluorescence intensity (no concentration beside the values); 3.1% of 360,000 active;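 active = at least 3 SD above the mean of all compounds, about 16000 in these data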;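 also: 100 nL of 1 mM stock went into each well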
Mtb hypoxia inh growth – further read-out of Mtb hypoxia inh, marked with its call; growth inhibition, %; measured here: M. tuberculosis growth (absorbance);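 0% = vehicle and 100% = reference antibiotic; read after six days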
* marks the source's active call; other numbers are inactive results; . = not tested or not shown.

SMILES	BJeLR viability	RN4220 kill	ugtP null kill	Mtb hypoxia inh	Mtb hypoxia inh growth	PrP UTR inh	Bead autofluor
CC1CCN(C(=O)COC(=O)Cc2c[nH]c3ccccc23)CC1	-4	2.9	1	-5	-9	-3	4873
CCn1c2ccccc2c2nnc(SCC(=O)N3CC(C)OC(C)C3)nc21 (configuration not stated)	-3	2.3	2	2	4	-7	9652
CC(=O)c1ccc(NC(=O)CCNC(=O)c2ccccc2Cl)cc1	-3	-0.8	6	9	5	-22	3913
COC(=O)c1ccc2nc(C)c(C)nc2c1	-9	5.8	-6	13	9	-3	20620*
CC(=O)n1nc(-c2ccco2)nc1N	-1	2.9	-6	-11	8	-9	2998
O=C(NCCO)/C(=C/c1cccc([N+](=O)[O-])c1)NC(=O)c1ccco1	12	1.8	1	5	7	-32	4541
Cc1cccc(CCN2CCC(C(=O)c3ccc(NS(C)(=O)=O)cc3)CC2)n1	8	6.8	4	0	-2	.	.
Cc1c(Cl)cccc1N(CC(=O)NC1CCCCC1)S(C)(=O)=O	-1	-0.2	-4	6	-1	-6	4366
Cc1ccc(CN2CCN(Cc3cccn3-c3ccc(Cl)cn3)CC2CCO)o1 (configuration not stated)	-6	2.3	3	-1	12	-17	2063
O=C(O/N=C1/CCSc2ccccc21)c1ccccc1	-1	.	.	.	.	-27	3132
Cc1c(Cl)cccc1NC(=S)NCc1ccc(Cl)cc1	-1	-5.2	-4	.	.	-24	4093
COC(=O)C1=[N+]([O-])OC(C(=O)OC)C1c1c[nH]c2ccccc12 (configuration not stated)	2	1.2	1	9	7	-22	9159
CCCCC(=O)NN(C)c1nc(-c2ccccc2)nnc1C(F)(F)F	-5	-7.3	2	.	.	-4	4372
CCCCCOCC1CC(CC(C)=NNC(N)=O)(C(=O)OCC)C(=O)O1 (configuration not stated)	.	1.7	6	0	4	.	.
CCOc1ccc(-c2ccc(SCC(=O)Nc3nnc(CC)s3)nn2)cc1	.	5.3	6	-15	-1	-30	4380
O=C(CNS(=O)(=O)c1cccs1)N1CCN(c2ccccn2)CC1	3	3.3	0	.	.	-8	2225
COc1ccccc1C(=O)Nc1ccnn1C1CCN(Cc2ncc[nH]2)CC1	10	-2.2	-2	0	3	-16	5865
CCOC(=O)CN1C(=O)/C(=C/c2ccc(Cl)cc2)Oc2ccccc21	0	4.2	9	9	-1	1	3654
CCS(=O)(=O)c1ccc2oc(Nc3ccccc3C)nc2c1	2	-7.4	-8	2	8	-47	3597
COC(=O)[C@H](Cc1ccccc1)NC(=O)[C@@]1(C)C[C@@H]1[C@@H](NC(=O)OCc1ccccc1)c1ccccc1	4	.	.	.	.	-11	3649
COc1cc(OC)c(OC)cc1CNCCSc1nnnn1C	-13	-2.5	1	-3	-3	-21	4040
Cc1cc(NC(=O)CCC(=O)N(Cc2ccco2)C2(C(=O)NC3CCCCC3)CCN(C)CC2)no1	7	0.0	0	.	.	-4	3108
C[C@]12c3[nH]c4ccccc4c3CCN1C(=O)C(CC(=O)NCCN1CCOCC1)C[C@@H]2C(=O)N1CCCCC1 (some centres not stated)	.	0.5	3	3	14	-17	3589
CCc1nc(SCc2ccc(F)cc2)[nH]c(=O)c1C#N	.	9.6	11	10	3	-1	4524
O=C(NCCc1ccc(O)c(O)c1)C1COc2ccccc2O1 (configuration not stated)	0	.	.	.	.	-12	5635
O=C(COC(=O)c1ccc2c(c1)OCO2)NCc1ccc(Cl)cc1	1	3.6	0	.	.	-13	2756
Cc1cccn2c(=O)c3cc(C#N)c(=N)n(Cc4cccnc4)c3nc12	.	-0.7	8	1	5	-10	2327
COc1cc([C@H]2c3[nH]c4ccccc4c3C[C@H]3C(=O)N4[C@@H](c5cc(OC)c(OC)c(OC)c5)c5[nH]c6ccccc6c5C[C@H]4C(=O)N23)cc(OC)c1OC	83*	.	.	.	.	-5	3626
O=C(NNC(=O)C12CC3CC(CC(C3)C1)C2)[C@@H]1C[C@H]1c1ccccc1	1	4.7	-3	8	2	-5	4189
COc1cccc(CC2(CO)CCN(CC3=CC[C@H]4C[C@@H]3C4(C)C)CC2)c1	.	0.2	10	17	34	-30	4485

No new results follow: an excerpt of the list.
SMILES	BJeLR viability	RN4220 kill	ugtP null kill	Mtb hypoxia inh	Mtb hypoxia inh growth	PrP UTR inh	Bead autofluor
CCOc1ccc(-c2ccc(SCC(=O)Nc3nnc(CC)s3)nn2)cc1	.	5.3	6	-15	-1	-30	4380
O=C(CNS(=O)(=O)c1cccs1)N1CCN(c2ccccn2)CC1	3	3.3	0	.	.	-8	2225
COc1ccccc1C(=O)Nc1ccnn1C1CCN(Cc2ncc[nH]2)CC1	10	-2.2	-2	0	3	-16	5865
CCOC(=O)CN1C(=O)/C(=C/c2ccc(Cl)cc2)Oc2ccccc21	0	4.2	9	9	-1	1	3654
CCS(=O)(=O)c1ccc2oc(Nc3ccccc3C)nc2c1	2	-7.4	-8	2	8	-47	3597
COC(=O)[C@H](Cc1ccccc1)NC(=O)[C@@]1(C)C[C@@H]1[C@@H](NC(=O)OCc1ccccc1)c1ccccc1	4	.	.	.	.	-11	3649
COc1cc(OC)c(OC)cc1CNCCSc1nnnn1C	-13	-2.5	1	-3	-3	-21	4040
Cc1cc(NC(=O)CCC(=O)N(Cc2ccco2)C2(C(=O)NC3CCCCC3)CCN(C)CC2)no1	7	0.0	0	.	.	-4	3108
C[C@]12c3[nH]c4ccccc4c3CCN1C(=O)C(CC(=O)NCCN1CCOCC1)C[C@@H]2C(=O)N1CCCCC1 (some centres not stated)	.	0.5	3	3	14	-17	3589
CCc1nc(SCc2ccc(F)cc2)[nH]c(=O)c1C#N	.	9.6	11	10	3	-1	4524
O=C(NCCc1ccc(O)c(O)c1)C1COc2ccccc2O1 (configuration not stated)	0	.	.	.	.	-12	5635
O=C(COC(=O)c1ccc2c(c1)OCO2)NCc1ccc(Cl)cc1	1	3.6	0	.	.	-13	2756
Cc1cccn2c(=O)c3cc(C#N)c(=N)n(Cc4cccnc4)c3nc12	.	-0.7	8	1	5	-10	2327
COc1cc([C@H]2c3[nH]c4ccccc4c3C[C@H]3C(=O)N4[C@@H](c5cc(OC)c(OC)c(OC)c5)c5[nH]c6ccccc6c5C[C@H]4C(=O)N23)cc(OC)c1OC	83*	.	.	.	.	-5	3626
O=C(NNC(=O)C12CC3CC(CC(C3)C1)C2)[C@@H]1C[C@H]1c1ccccc1	1	4.7	-3	8	2	-5	4189

(listing goes on)
SMILES	BJeLR viability	RN4220 kill	ugtP null kill	Mtb hypoxia inh	Mtb hypoxia inh growth	PrP UTR inh	Bead autofluor
O=C(CSc1n[nH]c(=O)n1-c1ccccc1)Nc1ccccc1C(F)(F)F	-3	-1.6	2	-2	7	-32	3722
CCOc1ccc(CCNC(=O)Cn2nc(C)c3c(C)n(-c4ccccc4)nc3c2=O)cc1OCC	-4	1.5	2	3	3	-28	5018
O=C(c1cc(S(=O)(=O)N2CCCC2)c(Cl)cc1Cl)N1CCCC1	-2	0.0	12	-3	7	-20	2956
O=C(N/N=C/c1ccc(OC(=O)c2ccco2)cc1)c1ccncc1	6	.	.	.	.	-24	5746
O=C1C2C3C=CC(C4CC34)C2C(=O)N1/N=C/c1cccs1 (configuration not stated)	1	.	.	.	.	-28	2503
CC1C/C(=C\c2cccnc2)C(=O)/C(=C/c2cccnc2)C1 (configuration not stated)	.	16	-2	.	.	-1	2083
CCC(C)C(NC(=O)OC(C)(C)C)C(=O)NC(C)C(N)=O (configuration not stated)	-3	3.5	1	7	9	-10	2525
O=C(Nc1ccccc1Cl)Nc1cccc2cccnc12	1	5.1	-5	-2	11	-25	.
COc1ccc(NC(=O)c2ccc(OCc3c(C)noc3C)c(OC)c2)cn1	-3	4.4	8	0	6	-4	3541
COc1ccc(-c2noc(CCC(=O)N3CCN(c4cccc(C)c4C)CC3)n2)cc1	.	5.2	3	4	11	-22	3433
COc1cc(NC(=O)Cc2ccc(OC)c(S(=O)(=O)N3CCOCC3)c2)c(OC)cc1Cl	-1	.	.	.	.	0	5492
Cc1cc(OCC(O)CN2CCOCC2)cc(C)c1Cl (configuration not stated)	-1	1.7	-4	12	-1	0	.
COCCNC(=O)NC(=O)COC(=O)c1cccn1C	.	1.6	5	-1	2	-1	4577
CCC1(c2ccccc2)NC(=O)N(CC(=O)Nc2cc(S(=O)(=O)N3CCOCC3)ccc2OC(C)C)C1=O (configuration not stated)	3	4.7	-2	7	9	-5	6617
CC(CC(=O)N1CCN(S(=O)(=O)c2ccccc2)CC1)n1cncn1 (configuration not stated)	-6	-0.1	8	4	-8	-15	3624
Cc1nn(CCCC(=O)NCc2ccc(F)cc2)c(C)c1[N+](=O)[O-]	-11	0.9	6	0	-1	-17	11037
CSc1sc(C(=O)N2CCCCC2)c(-c2cccs2)c1C#N	-6	3.6	0	6	15	-24	3623
CC(=O)c1c(C)[nH]c(C(=O)OCC(=O)Nc2cc(C)on2)c1C	1	6.6	10	8	3	-11	7302
Cc1ccc(C(=O)NC(=Cc2ccco2)C(=O)NCCc2c[nH]c3ccccc23)cc1C	.	2.5	-8	4	-10	.	.
CN(CCCNC(=O)Cn1c(=O)c2cccn2c2ccccc21)Cc1ccccc1	4	-0.8	8	0	0	-25	6052
COc1ccc(OC)c(Nc2nc(NCc3ccco3)nc(N)c2[N+](=O)[O-])c1	0	1.5	2	3	4	.	5933
COc1ccccc1N(CC1CO1)S(=O)(=O)c1ccc(C)cc1 (configuration not stated)	-1	-0.8	1	16	12	-13	5662
COc1ccc(CNC(=O)CCNS(=O)(=O)c2cc(Br)cnc2N)cc1	-4	3.0	0	1	-7	-14	5512
COc1ccc(N2C(=O)/C(=C/c3cc(C)n(-c4ccc(C)cn4)c3C)C(=O)NC2=S)c(OC)c1	2	2.5	3	1	-6	-5	2698
CC(C)CCNC(=O)c1cc2c(s1)-c1ccccc1S(=O)(=O)C2	5	2.7	2	13	4	5	4941
O=C(C1CCCO1)N1CCN(c2ccccn2)CC1 (configuration not stated)	4	8.4	2	0	7	-19	4580
Cc1ccc(NC(=O)N2CCCc3ccccc32)cc1C	2	-1.3	-1	-2	-3	-14	6575
COc1ccc(Br)cc1S(=O)(=O)N1CCCC1	5	-4.0	-4	5	7	1	4712
Cn1nnnc1SC(C(=O)Nc1ccc(F)cc1)c1ccccc1 (configuration not stated)	7	0.8	-7	1	2	2	4291
CCOC(=O)C1=C(N)OC2=C(C(=O)CC(C)(C)C2)C1c1cccnc1 (configuration not stated)	1	6.8	11	2	8	-5	22141*
O=C(c1ccccc1)N1CCN(c2ccc(Cl)cc2)CC1	4	5.3	8	14	16	-21	8264
Cn1c(=O)c(-c2ccccc2N)nc2ccccc21	-4	0.9	0	0	0	-32	20647*
CC(=O)N(C)c1ccc(NC(=O)Nc2ccc(Cl)cc2)cc1	2	0.3	-5	-5	3	.	.
CCNc1ccc(S(N)(=O)=O)cc1[N+](=O)[O-]	13	0.7	1	-2	2	-8	10404
CC(=O)c1c(C)[nH]c(C(=O)OCc2ccc(F)cc2Cl)c1C	13	-1.3	7	11	11	-21	4231
CC(C)(CO)Nc1nc(Nc2ccccc2)nc(Nc2ccccc2)n1	1	-3.3	-16	7	4	-3	2444
O=C(CSc1nccn1-c1ccc(F)cc1)Nc1ccc2c(c1)OCO2	-5	1.0	6	.	.	-3	4262

From PubChem

Rows are unselected; overall some 4% were active at least once.
